High-throughput results as filed in PubChem.
HPGD inh: HPGD (human) dehydrogenase inhibition; P15428; purified HPGD, NADH fluorescence kinetic, PGE2 substrate; Potency, µM, for the others: top-dose activity change, negative = inhibition, usual class: inhibitors; actives 4.3% (n = 150,000); AID 894; active = well fitted inhibition curve with a large enough effect (not every such curve was filed as active); inconclusive = small, poorly fitted or top-dose-only effect, or another doubt; inactive = no such curve, though single readings can be large or run the other way;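 also: top concentration of the series not given in the record; plate controls included wells without enzyme; inactives centre near -10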
Target sequence (P15428 whole entry, looked up): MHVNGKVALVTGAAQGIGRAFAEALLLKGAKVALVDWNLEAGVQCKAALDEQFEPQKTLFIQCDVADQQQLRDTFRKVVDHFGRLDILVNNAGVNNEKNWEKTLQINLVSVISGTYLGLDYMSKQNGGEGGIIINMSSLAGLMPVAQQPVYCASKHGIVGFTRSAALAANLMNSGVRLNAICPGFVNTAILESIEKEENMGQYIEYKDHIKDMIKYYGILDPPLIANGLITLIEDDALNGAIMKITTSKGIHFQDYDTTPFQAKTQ
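20 nM HPGD preincubated 15 min at room temperature with compound in 50 mM Tris-HCl pH 8, 0.01% Tween 20. Started with 1 mM NAD+ and 30 uM prostaglandin E2; NADH fluorescence (360/450 nm) read 5 times over 30-s intervals, last minus first.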
* = called active by the depositor; ? = inconclusive. % is scaled to controls: 0 for no effect and ±100 for the full control effect; potency is read from the fitted curve at half-maximal effect. An excerpt. The share of hits here may be higher or lower than overall.

| HPGD inh | Molecule |
| --- | --- |
| -17% | CCN(CC)c1nc(-c2cccc(OC)c2O)nc2ccccc12 |
| ? | O=Cc1ccccc1OCCOc1ccccc1C=O |
| -14% | CCOC(=O)/C=C1\CC(C(=O)OCC)Oc2c(OC)cccc21 (stereo not given) |
| -23% | CCOC(=O)N1CCC(NC(=O)c2ccc3nc(N4CCOCC4)sc3c2)CC1 |
| -9% | COC(=O)c1nnn(CC(=O)NC(=O)Nc2ccccc2)c1C(=O)OC |
| -1% | O=C(CN1CCN(c2ccc([N+](=O)[O-])cc2)CC1)Nc1ccccn1 |
| -3% | CC(=O)c1ccc(-n2nnnc2SCC(=O)N2CCN(C(=O)c3ccco3)CC2)cc1 |
| ? | COc1ccc(-c2cc(C(=O)O)c3c(C)nn(-c4ccccn4)c3n2)cc1 |
| 1% | Cc1ccc(OCC(=O)N2CCN(C(=O)c3cccs3)CC2)cc1 |
| 0% | CCOC(=O)Cn1c(=NC(=O)C(C)(C)C)sc2cc([N+](=O)[O-])ccc21 |
| 16µM* | CCOc1cc(C(=S)N2CCOCC2)ccc1OS(=O)(=O)c1ccccc1[N+](=O)[O-] |
| -19% | COc1ccc(-c2cc3ccccc3n2CC(O)CNCCO)cc1 (stereo not given) |
| -1% | CCCC(=O)N1CCN(S(=O)(=O)c2cc(Cl)ccc2OC)CC1 |
| -11% | COCc1[nH]nc2c1C(C1C=CCCC1)C(C#N)=C(N)O2 (stereo not given) |
| -11% | COC(=O)c1ccc(C(NC(=O)OCc2ccccc2)/C(=C/[C@@H](C)C(=O)NCc2ccncc2)c2cccnc2)cc1 (stereo not given in full) |
| 1% | COc1cc(Cl)c(S(=O)(=O)n2cnc(C)c2)cc1Cl |
| -16% | CCOC(=O)c1oc2ccc(Br)cc2c1CSc1nnc(C)s1 |
| 22µM* | CC1CCCCC1NC(=O)CSc1nncs1 (stereo not given) |
| -10% | C=CCn1c(SCC(=O)OCC)nc2cc(C(=O)NCc3ccco3)ccc2c1=O |
| -12% | CCOc1ccc(Oc2c(/C=N/NC(=O)C3CC3)c(C)nn2-c2ccccc2)cc1 |
| -7% | FC(F)(F)c1cccc(NC(=S)NCCN2CCOCC2)c1 |
| -6% | Cc1cc(C)nc(SCC(=O)Oc2ccc3oc(=O)cc(C)c3c2)n1 |
| -21% | O=C(CSc1nnc(-c2cccnc2)n1-c1ccc(F)cc1)NCc1ccc2c(c1)OCO2 |
| -12% | O=C1CC(N(Cc2ccc3c(c2)OCO3)C(=O)Nc2ccc(F)cc2)C(=O)N1c1ccccc1 (stereo not given) |
| -21% | COC(=O)c1cccc(NC(=O)c2cnoc2C)c1 |
| -6% | O=C(O)c1ccc(CN2CCCCC2)o1 |
| -5% | OC1(c2ccccc2F)CCN(Cc2nnnn2CCc2ccccc2)CC1 |
| -8% | Cc1cc(C)n(-c2nc(Nc3ccccc3C)nc(-n3nc(C)cc3C)n2)n1 |
| -14% | Cc1cccc(NC(=O)C2CC(=O)N(c3ccccc3)C2)c1C (stereo not given) |
| -6% | Cc1cc(C)c2c(CN3CCN(Cc4ccc5c(c4)OCO5)CC3)cc(=O)oc2c1C |
| -12% | CSc1nc(C)cc(OCNC(=O)c2cccs2)n1 |
| -15% | C=CCN(c1ccc(C(=O)NC(C)C)cc1)S(C)(=O)=O |
| ? | CCc1[nH]c(=S)c(C#N)c(-c2ccccc2)c1C(=O)OC |
| -24% | O=[N+]([O-])c1ccc2c(c1)ncn2-c1ccccc1 |
| -10% | O=C(O)c1ccccc1-c1ccccc1C(=O)c1ccccc1 |
| -12% | CCN(CC)c1ccc(NC(=O)CCNC(=O)c2ccco2)cc1 |
| -9% | Nc1nnc(CCc2ccccc2)s1 |
| -16% | COc1ccccc1Nc1nnc(SCC(=O)Nc2cc(C)on2)s1 |
| -7% | NS(=O)(=O)c1ccc(N=Nc2c(O)c(C(=O)O)cc3ccccc23)cc1 |
| -8% | O=C(c1cc2cc(Br)ccc2oc1=O)N1CCN(c2ccccn2)CC1 |
| -11% | O=C(COC(=O)c1ccc([N+](=O)[O-])s1)Nc1ccc(Cl)cn1 |
| -5% | COC(=O)[C@@H]1C[C@@]2(O)[C@@H](O)[C@@H](O)[C@@H](O)C[C@H]2N1Cc1ccc(-c2ccccc2)cc1 |
| ? | C=CCn1c(C)cc(C(=O)CSc2nc3ccccc3[nH]2)c1C |
| -17% | CCc1cc(C(=O)NNC(=S)Nc2ccccc2C)cs1 |
| -15% | Cc1ccc(-c2cc(C(=O)N/N=C/c3c(C)nn(C)c3C)c3ccccc3n2)c(C)c1 |
| -8% | COc1cccc(OC)c1C(=O)N1CCN(c2c(Cc3ccccc3)c(C)nc3ncnn23)CC1 |
| 0% | CC(=NCCc1ccccc1)C1=C(O)CSC1=O |
| -7% | Cc1cnc(C(=O)OCC(=O)N2c3ccccc3NC(=O)C2(C)C)cn1 |
| -25% | Cc1cc(=O)n(CCO)c(O)c1C#N |
| -27% | COc1cc2cc(CN(CCO)C(=O)c3cccs3)c(=O)[nH]c2cc1OC |
| -13% | COC(=O)C1OC2(OC1C(=O)OC)c1ccccc1-c1ccccc12 (stereo not given) |
| -8% | Cc1c(C(=O)Nc2ccc3c4c(cccc24)CC3)cccc1[N+](=O)[O-] |
| 1% | O=C(O)CCNS(=O)(=O)c1ccc(Oc2ccccc2Cl)cc1 |
| ? | OCc1ccncc1.OCc1ccncc1.[Cl][Pt]([Cl])([Cl])[Cl] |
| -3% | C[C@@]1(C(NC(=O)c2ccccc2)c2ccc(-c3ccccc3)cc2)C[C@H]1C1CCCCC1 (stereo not given in full) |
| -1% | Cc1cc(=O)oc(C)c1C(=O)Nc1ccc(Cl)cn1 |
| -15% | Cc1c(C(=O)N2CCN(c3ccccc3F)CC2)sc2nc(-c3ccccc3)cn12 |
| -3% | CCOc1ccccc1N1C(=O)c2cccnc2C1=O |
| -27% | COC(=O)c1ccc(C(NC(=O)OCc2ccccc2)/C(I)=C/[C@@H](C)C(=O)NCc2ccc(C)o2)cc1 (stereo not given in full) |
| -5% | CC(C)(O)[C@H](O)COc1c2ccoc2cc2oc(=O)ccc12 |

Taken from the results shown (6 entries):
| HPGD inh | Molecule |
| --- | --- |
| -8% | COc1cccc(OC)c1C(=O)N1CCN(c2c(Cc3ccccc3)c(C)nc3ncnn23)CC1 |
| 0% | CC(=NCCc1ccccc1)C1=C(O)CSC1=O |
| -7% | Cc1cnc(C(=O)OCC(=O)N2c3ccccc3NC(=O)C2(C)C)cn1 |
| -25% | Cc1cc(=O)n(CCO)c(O)c1C#N |
| -27% | COc1cc2cc(CN(CCO)C(=O)c3cccs3)c(=O)[nH]c2cc1OC |
| -13% | COC(=O)C1OC2(OC1C(=O)OC)c1ccccc1-c1ccccc12 (stereo not given) |

Going on with the list.
| HPGD inh | Molecule |
| --- | --- |
| -9% | O=C(c1ccc(S(=O)(=O)N2CCCCC2)cc1)c1nnc(-c2ccc(Cl)cc2)o1 |
| -6% | O=C1CN=C(Nc2ccc(Cl)cc2)N1c1ccccc1 |
| 11µM* | CCn1ncc(CNC(=O)C2(C)CC2(Cl)Cl)c1C (stereo not given) |
| -17% | CCOC(=O)N1CCN(C(=O)CSCc2ccc(Cl)cc2)CC1 |
| -12% | COc1cc(NC(=O)C2CCCCC2)c(OC)cc1NC(=O)CCC(=O)NCc1ccco1 |
| 25µM* | CCC(OC(=O)c1nsc(Cl)c1Cl)C(=O)NCc1cccs1 (stereo not given) |
| 13µM* | CC(C)(C)NC(=S)NNC(=O)c1ccncc1 |
| -11% | O=C(c1ccc(Cl)cc1)N1CCC(O)(CSc2ccc(Cl)cc2)CC1 |
| -27% | Cc1ccc(NC(=O)CCSc2nnnn2-c2ccc3c(c2)OCO3)cc1C |
| -13% | COC(=O)c1cc(N=CC2=C(O)CC(C)(C)CC2=O)cc(C(=O)OC)c1 |
| -16% | CC1CCN(c2ncnc3c2cnn3Cc2ccc(Cl)cc2)CC1 |
| ? | CNc1nc(C)cc(C)c1S(=O)(=O)c1ccc(C)cc1 |
| -4% | N=C(N)SCc1ccccc1Cl |
| -1% | O=C(Cc1ccc(Nc2nc3ccc(Br)cc3[nH]2)cc1)NCCc1cccs1 |
| -10% | Cc1ccc(N2CC(C(=O)NCC3CCCO3)CC2=O)cc1Cl (stereo not given) |
| 11% | CCCNC(=O)Cn1cnc2sc(C(=O)N3CCN(CCC)CC3)c(C)c2c1=O |
| -9% | Cc1ccc(NC(=S)NC2CCCC2)cc1 |
| -19% | c1ccc2c(c1)ccc1ccccc12 |
| -3% | S=C(Nc1ccccc1Cl)N1CCN(Cc2ccccc2)CC1 |
| -29% | CC1(C)CC(=O)c2cc(OCC(=O)N3CCN(c4ccccc4F)CC3)ccc2O1 |
| -14% | CCOc1ccccc1OCCOc1ccccc1CC |
| ? | COc1ccc(Oc2ncc3nc(-c4ccccc4)c(=O)n(C4CC4)c3n2)cc1 |
| -2% | C=C(C)Cn1c(CNC(C)=O)nc2ccccc21 |
| 2% | CC(C)N(C(=O)CSc1nnnn1C1CCCC1)C(C)C |
| -14% | CC1(CCC#N)N=C(SCCC#N)N(c2ccccc2)C1=O (stereo not given) |
| -7% | Cc1ccccc1C(=N)c1ccccc1Cc1cccc2ccccc12 |
| -8% | O=C(CNC(=O)c1ccc(Br)cc1)NCC(=O)OCC(=O)c1ccc([N+](=O)[O-])cc1 |
| -10% | Cc1cc(C)n2c(SCC(=O)Nc3ncc(C(F)(F)F)cc3Cl)nnc2n1 |
| -16% | COc1ccc(C(=O)c2sc3nc(-c4ccccc4)ccc3c2N)cc1OC |
| 13µM* | CC(C)C(OC(=O)c1ccco1)C(=O)NCc1ccccc1 (stereo not given) |

Grouped by structure: those above with a tert-butyl group
| HPGD inh | Molecule |
| --- | --- |
| 0% | CCOC(=O)Cn1c(=NC(=O)C(C)(C)C)sc2cc([N+](=O)[O-])ccc21 |
| 13µM* | CC(C)(C)NC(=S)NNC(=O)c1ccncc1 |

New compounds follow
| HPGD inh | Molecule |
| --- | --- |
| -17% | COc1cccc(C2=Nn3c(nnc3-c3ccccc3O)SC2)c1 |
| 0% | C=CC1=C2C=C(C3CC3)N(CCCN(CC)CC)C=C2C(=O)C(C)(OC(=O)c2ccco2)C1=O (stereo not given) |
| ? | COC(=O)Cn1c(=NC(=O)c2ccc(Cl)s2)sc2cc(C)ccc21 |
| -30% | Cc1ccc(NC(=O)C2(c3ccccc3)CC2(Cl)Cl)cc1C (stereo not given) |
| ? | O=c1c2cnn(-c3ccccc3)c2nc(-c2cccs2)n1-c1ccc(Cl)cc1 |
| -4% | Cc1nc(SCC(=O)N2CCOCC2)c2ccsc2n1 |
| 14µM* | COc1ccccc1Cn1nnc2c(=O)[nH]c(C3CCN(C(=O)c4ccccc4Cl)CC3)nc21 |
| -7% | c1ccc2cc(-c3cc(-c4cc(-c5ccc6ccccc6c5)on4)no3)ccc2c1 |
| -6% | CN(Cc1cc(C(C)(C)C)cc(Br)c1O)Cc1cc(C(C)(C)C)cc(Br)c1O |
| -4% | COc1ccccc1CNC(=O)C(C)NS(=O)(=O)c1ccc(C)cc1 (stereo not given) |
| -28% | COc1ccc(-c2c3c(nc4sc(C(=O)Nc5cc(C)on5)c(N)c24)CCC3)cc1 |
| 11µM* | CN1CCN(C(=O)c2cc3nc(-c4ccc(F)cc4)cc(C(F)(F)F)n3n2)CC1 |
| ? | CCCC(=O)Nc1nnc(-c2ccc(Cl)s2)o1 |
| -21% | C=CCOc1ccc2nnc(C)n2n1 |
| -6% | O=c1c2ccccc2ncn1CCCSc1ccccc1 |

Some of the entries above, set out differently:
canonical_smiles: COc1ccccc1Cn1nnc2c(=O)[nH]c(C3CCN(C(=O)c4ccccc4Cl)CC3)nc21
  HPGD inh = 14µM*

canonical_smiles: c1ccc2cc(-c3cc(-c4cc(-c5ccc6ccccc6c5)on4)no3)ccc2c1
  HPGD inh = -7%

canonical_smiles: CN(Cc1cc(C(C)(C)C)cc(Br)c1O)Cc1cc(C(C)(C)C)cc(Br)c1O
  HPGD inh = -6%

Other compounds:
| HPGD inh | Molecule |
| --- | --- |
| -16% | COc1ccc(C(=O)Oc2cc(/C=N/NS(=O)(=O)c3ccc(C)cc3)ccc2OC)cc1 |
| -6% | CCOC(=O)c1cc(-c2ccccc2)n(CC(=O)Nc2ccc(OC)cc2)c1C |
| -7% | COc1ccc(-c2nc3ccccc3c(=O)n2N)cc1 |
| -3% | COc1cccc(OC)c1OCCCN1CCOCC1 |
| -3% | COCCCn1c(SCC(=O)Nc2nnc(C)s2)nnc1-c1ccoc1C |
| -11% | CC(=O)Nc1cc(S(=O)(=O)Nc2ccccc2C)c(C)cc1C |
| -14% | CC/C(C)=C1\SC(N2CCN(C(C)=O)CC2)=NC1=O |
| -17% | O=S(=O)(c1ccc2ccccc2c1)n1cnc2ccccc21 |
| -9% | O=C(CSc1nnc2n(C3CCCC3)c(=O)c3ccccc3n12)N1CCCCCC1 |
| -17% | COc1ccc(/C(O)=C2/C(=O)C(=O)N(c3ncccn3)C2c2ccc(OC)c(OC)c2)cc1 (stereo not given) |
| -13% | O=C1OC(c2ccc(Cl)cc2)/C(=C(/O)c2ccccc2)C1=O (stereo not given) |
| ? | Cc1cc(Nc2ccccc2Cl)n2nnnc2n1 |
| -23% | CCOc1ccc(S(=O)(=O)Nc2nc3ccc(OC)cc3s2)cc1 |
| -3% | CSc1nc(NCc2ccco2)c2c3c(sc2n1)CN(C)CC3 |
| -9% | O=C(CCn1nnc2ccccc2c1=O)NCC1CCC(C(=O)O)CC1 (stereo not given) |
| -10% | COc1cc(OC)nc(NC(=O)CSc2nc3ccccc3o2)n1 |
| -27% | COc1cc(/C=C2\SC(=Nc3ccccc3)N(Cc3ccco3)C2=O)ccc1OC(C)C(=O)O (stereo not given) |
| -13% | COC(=O)c1n[nH]c2ccccc12 |
| ? | O=C(O)c1ccc(-c2ccccc2C(F)(F)F)s1 |
| -20% | CC(=O)/C(C#N)=C1\NC(=O)C(Cc2ccccc2)S1 (stereo not given) |
| -10% | Cc1ccccc1C(=O)N1CCC(C(N)=O)CC1 |
